# D2 agonist: activates the human D2 dopamine receptor | P14416 | DiscoveRx PathHunter D2 beta-arrestin, luminescence, 90 min; 100% = 57 uM dopamine signal | activation, % (concentration not given with the values) | 360,000 tested, 0.084% active | AID 624465; in the data active = activation above about 40%; inconclusive = about 15% to 40%; inactive = below about 15%; further: compound concentration not given in the record; the text of the record calls up to 30% inactive
#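 DiscoveRx PathHunter D2 beta-arrestin cells (2,100/well) attached overnight, then compound-stimulated 90 min at 37 C in HBSS/10 mM HEPES/0.1% Tween-20 buffer; beta-galactosidase complementation read by luminescence after 1 h at ambient temperature. Dopamine 57 uM final (EC100) as control.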
# gsp antag: gsp mutant antagonism. gsp-mutant cells, cAMP HTRF, 30 min; control for the full effect not named in the record. 340,000 tested, 0.4% active. AID 624288. Potency, µM (doses to about 76.9 µM), for the others: at the highest dose activity change, negative = inhibition, hits mostly inhibitors; active = falling curve of any shape with a large fitted effect; inconclusive = falling curve, mostly with a smaller effect; inactive = flat or rising curve; cell line not stated here;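 further: intracellular cAMP measured with PDE inhibitor Ro 20-1724 present during compound exposure; potency means the concentration at half of the fitted maximal effect; on the % scale 0 is the no-effect control and ±100 the full control effect; nearly all actives have a fitted effect of over 65% in size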
#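 HTRF cAMP read-out (cAMP-d2 plus anti-cAMP antibody-K in lysis buffer, 30 min RT). Before lysis, cells are exposed to compounds with […] for 30 min at 37C in DPBS containing Ca/Mg, BSA and Tween 20.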
# gsp agonist: activates gsp, the McCune-Albright syndrome mutation; gsp mutant cells, cAMP HTRF, 30 min; control for the full effect not named in the record; Potency, µM (series often up to 76.9 µM), for the others: at the highest dose activation (cAMP increase), actives largely listed as activators; 340,000 tested, 0.13% active; AID 624287; active = well fitted activation curve with a large enough effect; inconclusive = small, poorly fitted or top-dose-only effect, or another doubt; inactive = no such curve, though single readings can be large or run the other way; cell line not stated here;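 further: phosphodiesterase inhibitor Ro 20-1724 added with compounds to block cAMP breakdown; potency means the concentration at half of the fitted maximal effect; nearly all actives have a fitted effect of over 60% in size; about a fifth of the inactives were tested at one dose only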
#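 Cells stably selected in G418 were plated at 2000/well, grown 16-24 hr, then given compounds in DMSO with the PDE inhibitor […] (300 uM solution added) for 30 min at 37C; cAMP was read by HTRF.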
# Six1-Eya2 inh: Six1/Eya2 interaction inhibition; Q15475+O00167; AlphaScreen GST-Six1/His-Eya2 binding, biochemical; active compounds read low; control for the full effect not named in the record; activity change, % (concentration not given with the values); 360,000 tested, 0.56% active; in the data active = activity change below about -65%; inconclusive = about -30% to -65%; inactive = above about -30%; further: on the % scale 0 is the no-effect control and ±100 the full control effect
# Target sequence (O00167 whole entry, looked up): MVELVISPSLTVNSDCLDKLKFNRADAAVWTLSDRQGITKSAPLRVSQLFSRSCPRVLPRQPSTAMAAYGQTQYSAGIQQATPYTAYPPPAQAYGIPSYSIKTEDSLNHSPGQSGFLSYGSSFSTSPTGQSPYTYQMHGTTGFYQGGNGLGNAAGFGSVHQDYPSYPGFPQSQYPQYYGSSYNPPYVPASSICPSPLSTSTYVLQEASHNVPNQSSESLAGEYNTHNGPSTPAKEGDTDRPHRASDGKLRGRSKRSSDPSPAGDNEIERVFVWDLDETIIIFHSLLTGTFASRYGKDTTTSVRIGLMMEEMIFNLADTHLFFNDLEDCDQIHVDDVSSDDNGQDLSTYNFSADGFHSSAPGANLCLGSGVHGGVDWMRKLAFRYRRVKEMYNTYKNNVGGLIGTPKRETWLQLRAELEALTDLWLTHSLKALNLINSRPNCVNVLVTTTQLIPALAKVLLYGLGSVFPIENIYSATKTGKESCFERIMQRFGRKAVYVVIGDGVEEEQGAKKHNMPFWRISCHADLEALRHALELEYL
# Target sequence (Q15475 whole entry, looked up): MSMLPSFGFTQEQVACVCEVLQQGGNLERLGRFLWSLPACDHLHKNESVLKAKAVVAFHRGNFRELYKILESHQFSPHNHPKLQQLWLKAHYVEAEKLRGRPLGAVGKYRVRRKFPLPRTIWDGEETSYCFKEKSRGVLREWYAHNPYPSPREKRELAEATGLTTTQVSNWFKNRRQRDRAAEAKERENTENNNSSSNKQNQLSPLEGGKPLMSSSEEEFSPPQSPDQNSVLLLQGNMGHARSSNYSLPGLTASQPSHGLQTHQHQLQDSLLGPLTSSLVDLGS
#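 GST-Six1 + His-Eya2 (5X stock: 250/500 nM); Tris pH 8.0, 300 mM NaCl, 0.05% BSA, 0.02% Tween 20; GSH donor/Ni acceptor beads; 1 h 37 °C dark; AlphaScreen readout.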
# CtBP-E1A inh: blocks the CtBP interaction with E1A; AID 651724; AlphaScreen GST-E1A/His-CtBP binding, 1536-well; active compounds read low; control for the full effect not named in the record; 340,000 tested, 0.49% active; activity change, % (test concentration not listed); in the data active means activity change below about -65%; inconclusive means about -30% to -65%; inactive means above about -30%; further: on the % scale 0 is the no-effect control and ±100 the full control effect
#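 In 5 uL wells, 23 nL compound meets equimolar GST-E1A and His-CtBP (5X stock 125 nM each) for 2 h, 37 °C. Beads (5X, 50 ug/mL) then 1 h, 37 °C, dark.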
# D2 potentiator: human D2 receptor positive allosteric modulation. potentiation, % (test concentration not listed). DiscoveRx D2 beta-arrestin cells, luminescence, 90 min; 100% = 57 uM dopamine signal. P14416. 360,000 tested, 0.23% active; active = potentiation of 50% or more; inconclusive = 30% to 50%; inactive = 30% or less;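 further: compound concentration not given in the record; tested on top of an EC20 dose of dopamine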
#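 PathHunter beta-arrestin assay in DiscoveRx D2 cells. Compounds were added with an EC20 of dopamine (50 nM final) for 90 min at 37 deg C. Luminescence was read 1 h after detection reagent, with 57 uM dopamine as the EC100 control.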
# * marks the source's active call; other numbers are inactive results; ? = inconclusive; . = no result given; [ ] = dose if it differs, or a comment. Rows are unselected; any-hit rate near 1.4%.
no.	canonical_smiles	D2 agonist	gsp antag	gsp agonist	Six1-Eya2 inh	CtBP-E1A inh	D2 potentiator
1	CCCN1CCN(C(=O)c2ccccc2-c2nc3ccccc3s2)CC1	-5.3	11µM*	-9%[15.4 µM]	3	-14	-10
2	Cc1ccccc1C(=O)NCC(=O)Nc1ccc(C)c(S(=O)(=O)N2CCCCCC2)c1	-0.9	-22%	-31%[inhibitor]	7	12	9
3	O=C(CSc1ncn[nH]1)Nc1cccc2ccccc12	-3.6	4%	-37%[inhibitor]	2	2	2
4	CSc1nc(S(=O)(=O)c2ccc(C)cc2)c(Cl)s1	-2.9	?	?	4	8	-3
5	CN(C)/C=N/n1cnc2ccccc2c1=O	0.3	7%	?	-3	0	-3
6	CCc1c(C)nc(N)n2c(SCC(=O)NC3CCCCC3)nnc12	-1.8	15%	38%	9	20	-4
7	COC(=O)c1cccc(NC(=O)c2cc(OC)c(OC)c(OC)c2Br)c1	-0.6	-15%	6%[15.4 µM]	19	4	2
8	COc1ccc(CCN(C)C(=S)NC(=O)c2ccc(F)cc2Cl)cc1OC	-0.7	-12%	2%[15.4 µM]	-3	1	2
9	CCN(CC)S(=O)(=O)c1ccc(C(=O)Nc2ncn(Cc3ccccc3)n2)cc1	1.7	-2%	5%	8	-14	4
10	CCCN1CCC(=O)N([C@H](CSc2ccc(C)cc2)CC(C)C)CC1	1.5	6%	.	0	-2	-14
11	COc1cc2sc(NC(=O)c3ccco3)nc2cc1Cl	-2.0	-4%	?	1	-4	-4
12	Cc1ccc(NS(=O)(=O)c2ccc(C(=O)OCC(=O)NCC3CCCO3)cc2)cc1 (stereo not drawn)	6.2	-6%	?	-5	2	-3
13	c1ccc(C2OCCN2c2ccccc2)cc1 (stereo not drawn)	0.7	-1%	9%[15.4 µM]	7	0	-12
14	COc1ccc(C(C(=O)NC2CCCC2)N(Cc2ccc(F)cc2)C(=O)c2ccn[nH]2)cc1OC (stereo not drawn)	0.6	-11%	-31%[inhibitor]	-2	9	10
15	Cc1nc2sc(C(c3ccco3)N3CCN(C(c4ccccc4)c4ccccc4)CC3)c(O)n2n1 (stereo not drawn)	-4.2	?	-46%[inhibitor]	-4	-17	-6
16	Cc1ccc(C)c(NC(=O)[C@@H]2CCCN2S(=O)(=O)c2ccccc2F)c1	-2.5	6%	-1%	11	-4	-4

# Along the list, from the results shown.
# Nos. 9–14 in gsp antag read -2%, 6%, -4%, -6%, -1%, -11%
# Nos. 9–14 in Six1-Eya2 inh read 8, 0, 1, -5, 7, -2
# Nos. 9–14 in D2 agonist read 1.7, 1.5, -2.0, 6.2, 0.7, 0.6

# The listing continues:
no.	canonical_smiles	D2 agonist	gsp antag	gsp agonist	Six1-Eya2 inh	CtBP-E1A inh	D2 potentiator
17	c1ccc(-c2nc3ccccc3c3nc4ccccc4n23)cc1	-4.4	-3%	13%[15.4 µM]	3	10	-5
18	CCOc1ccccc1NC(=O)c1cccc(NC2=NC3CS(=O)(=O)CC3S2)c1 (stereo not drawn)	-4.2	3%	-5%	-2	-20	0
19	CC(=O)c1ccc([N+](=O)[O-])c(CS(=O)(=O)c2ccccc2)c1	11	2%	14%	-2	11	1
20	COc1ccc(-c2cc(C(=O)Nc3c(Cl)cc(Cl)cc3Cl)c3ccccc3n2)cc1OC	3.1	7%	11%	3	8	-19
21	Cn1ccc2c(N3CCCCCC3)cc3c(c21)C1CCC3O1 (stereo not drawn)	11	.	.	?	?	3
22	COc1ccc(CSCC(=O)Nc2ccccc2SC)cc1	-3.9	5%	-18%	8	-1	-11
23	c1ccc2oc(-c3[nH]ncc3CN3CCSCC3)cc2c1	-3.8	-1%	-4%	-1	-14	-8
24	O=C(CN1CCCc2ccccc21)Nc1cc(S(=O)(=O)N2CCCC2)ccc1Cl	0.6	-17%	2%	-10	-8	-2
25	CC(C)CNCC(=O)N1c2ccccc2Sc2ccccc21	-2.4	-2%	-1%	0	0	-11
26	CCN1C2=NCCCN2c2cc(C)c(C)cc21	-4.5	2%	-11%	10	1	-14
27	COCCn1c(N)c(N(Cc2ccccc2)C(=O)CSCC(=O)Nc2ccc(C)cc2)c(=O)[nH]c1=O	-2.2	-4%	?	0	5	24
28	Cc1ccc(C)c(-c2csc(NC(=O)c3cnccn3)n2)c1	-3.3	4%	-3%[15.4 µM]	-24	-22	-1
29	O=Cc1ccccc1-c1cn(CCCOCc2ccccc2)nn1	-1.8	-6%	-32%[inhibitor]	9	3	-12
30	Cc1n[nH]c(=S)n(/N=C/c2ccccn2)c1=O	5.5	-3%	-1%	-79*	-87*	?
31	CCOC(=O)Cc1csc(NS(=O)(=O)c2cccc([N+](=O)[O-])c2)n1	-1.5	-10%	?	1	-1	1
32	O=C(Nc1cccc(O)c1)C(Cc1ccccc1)N1C(=O)c2cccc3cccc(c23)C1=O (stereo not drawn)	-1.7	2%	-2%[15.4 µM]	2	-12	-3

# Structures listed above marked active in CtBP-E1A inh.
no.	canonical_smiles	D2 agonist	gsp antag	gsp agonist	Six1-Eya2 inh	CtBP-E1A inh	D2 potentiator
30	Cc1n[nH]c(=S)n(/N=C/c2ccccn2)c1=O	5.5	-3%	-1%	-79*	-87*	?

# More structures.
no.	SMILES	D2 agonist	gsp antag	gsp agonist	Six1-Eya2 inh	CtBP-E1A inh	D2 potentiator
33	O=c1c2c(nc3cc(-c4ccccc4)[nH]n13)CCC2	0.7	-2%	0%	0	6	-9
34	CCN(CC(=O)NCc1cccs1)C(=O)c1ccc(NS(=O)(=O)c2ccc(F)cc2)cc1	-5.0	-5%	-83%[inhibitor]	0	5	-21
35	O=[N+]([O-])c1ccc2c(c1)N([O-])C1(CCCCC1)[N+]2=O	0.1	?	10%[15.4 µM]	-12	-5	15
36	CCOc1ccc(N2C(=O)c3ccccc3C2=O)cc1	-3.5	9%	11%	-1	2	-11
37	Cc1ccc(Nc2nc(-c3c(C)n(C)n(-c4ccccc4)c3=O)c(C)s2)cc1	1.1	-15%	2%	-3	-9	-11
38	CC(C)(CNC(=O)c1cccc(F)c1)CNC(=O)c1cccc(F)c1	-2.6	10%	-1%	0	.	-15
39	COc1ccc(C(=O)CSc2nnc(-c3ccccn3)n2Cc2ccco2)cc1	0.0	-10%	-49%[inhibitor]	?	?	-3
40	CCC(Sc1nncn1C)C(=O)Nc1nnc(-c2ccccc2Cl)s1 (stereo not drawn)	-1.4	-20%	5%	-3	-9	-4
41	Cc1nn(-c2ccccc2)c(Cl)c1C(=O)Nc1nnc(C2CCCC2)s1	0.3	?	-28%	0	-3	19
42	COC(=O)c1cccc(Oc2nc3c(c(=O)n(C)c(=O)n3C)n2C(C)C)c1	-4.6	13%	?	5	-6	-6
43	CCc1noc(C)c1C(=O)N(CC)CC(=O)Nc1ccccc1C(F)(F)F	-2.5	19%	16%	?	4	2
44	Cc1ccc(-c2nnc(N3CCN(C(=O)CSc4ncn[nH]4)CC3)c3ccccc23)cc1	-0.2	-29%	9%	-10	-10	-3
45	CCN(C(=O)COC(=O)CSc1ccc([N+](=O)[O-])cc1)C1CCS(=O)(=O)C1 (stereo not drawn)	0.8	6%	-5%[15.4 µM]	0	2	12
46	CCOc1ccc(N=c2scc(-c3ccc(OC)cc3)n2CCO)cc1	4.5	-39%	-16%	-26	-21	2
47	CCOC(=O)C1CCN(C(=O)CCc2nnc3ccc(NCCCN4CCCC4=O)nn23)CC1	2.0	4%	?	2	.	-1
48	CC1(C)CC(CC(=O)NNc2nc(-c3ccccc3)cs2)C(=O)O1 (stereo not drawn)	3.7	10%	-8%	-7	4	-10
49	CNC(=O)c1ccccc1Nc1ccc(SC(F)F)cc1	3.8	-18%	-31%[inhibitor]	13	.	-3
50	CCCCOC(=O)C(C)Nc1n[nH]c(=S)[nH]c1=O (stereo not drawn)	-4.3	2%	21%	1	4	-13
51	CCOC(=O)c1cccc(NC(=O)c2cccnc2)c1	-1.6	5%	6%	1	0	-12
52	CCCCCCCCCn1cc(C(C)=O)c(=O)[nH]c1=O	-0.4	33%[activator]	18%	5	8	20

# An excerpt from above in order of length of the SMILES, largest number first.
no.	SMILES	D2 agonist	gsp antag	gsp agonist	Six1-Eya2 inh	CtBP-E1A inh	D2 potentiator
45	CCN(C(=O)COC(=O)CSc1ccc([N+](=O)[O-])cc1)C1CCS(=O)(=O)C1 (stereo not drawn)	0.8	6%	-5%[15.4 µM]	0	2	12
47	CCOC(=O)C1CCN(C(=O)CCc2nnc3ccc(NCCCN4CCCC4=O)nn23)CC1	2.0	4%	?	2	.	-1
42	COC(=O)c1cccc(Oc2nc3c(c(=O)n(C)c(=O)n3C)n2C(C)C)c1	-4.6	13%	?	5	-6	-6
33	O=c1c2c(nc3cc(-c4ccccc4)[nH]n13)CCC2	0.7	-2%	0%	0	6	-9

# Next section
no.	SMILES	D2 agonist	gsp antag	gsp agonist	Six1-Eya2 inh	CtBP-E1A inh	D2 potentiator
53	O=C(CSc1ccc(F)cc1)NC12CC3CC(CC(C3)C1)C2	-2.3	-6%	10%	9	6	-7
54	Cc1occc1C(=O)N(C)Cc1nc(-c2ccc(Cl)cc2)no1	2.3	.	-28%[15.4 µM]	-1	1	14
55	Cc1nc(CSc2nsc(/C=C/N(C)C)c2C#N)cs1	-4.6	-8%	20%[15.4 µM]	-5	-16	17
56	CCOc1ccc(C2(C)CC(=O)N(C)C2=O)cc1 (stereo not drawn)	3.5	-5%	-126%[inhibitor]	-2	.	?
57	O=S(=O)(c1ccc(Br)s1)N1CCN(c2ccc(F)cc2)CC1	7.6	-1%	3%	-6	-18	0
58	COC(=O)c1ccc(O)c(Sc2cc(C(=O)OC)ccc2O)c1	3.9	?	5%	6	1	-12
59	COC(=O)C1CCN(C(=O)Cc2ccc(OC)c(OC)c2)CC1	-0.2	7%	12%	8	-1	-3
60	O=C(CSC1CC(=O)N(c2ccc(C(=O)O)cc2)C1=O)Nc1ccc(Cl)cc1 (stereo not drawn)	1.9	4%	29%	1	.	-13
61	O=C(OCc1cc(=O)n2cc(Br)ccc2n1)c1ccc(Cl)c(S(=O)(=O)NCc2ccccc2)c1	1.6	-24%	?	6	18	-4
62	CCCNc1ncnc2[nH]ncc12	0.1	7%	38%	1	4	-8
63	O=C(Nc1ccc(Br)cc1)c1cccc(-n2cnnn2)c1	-0.4	-10%	6%[15.4 µM]	-4	0	-3
64	Cc1ccc(CCNC(=O)Cc2ccc(NC3=NC4CS(=O)(=O)CC4S3)cc2)cc1 (stereo not drawn)	-6.0	11%	-26%	3	0	-5
65	Cc1ccc(S(=O)(=O)N2C(=O)CCC2C(=O)N2CCCCC2)cc1 (stereo not drawn)	-4.2	-8%	3%	-4	1	-1
66	COc1ccc(N2CCN(CC(=O)c3c(C)n(C)c4ccc(OC)cc34)CC2)cc1	0.0	?	-9%[15.4 µM]	-6	-5	-20
67	CCOC(=O)C(CCCOc1ccccc1)C(=O)OCC	-1.9	-5%	29%	30	29	-11

# Screens as filed in PubChem BioAssay.
